Bioassay records: PubChem BioAssay, National Center for Advancing Translational Sciences (NCATS)
TRPML1 inh – qHTS for Inhibitors of the Human Mucolipin Transient Receptor Potential 1 (TRPML1); Mucolipin-1 (Homo sapiens), Q9GZU1; TRPML1-inducible cells, Ca2+ dye fluorescence, FDSS; stronger effect = lower value; inhibition of EC80 agonist-evoked calcium signal; activity change, negative = inhibition, % (concentration not given with the values); hit rate 0.02% among 390,000; in the data active means activity change below about -50%; inconclusive means about -30% to -50%; inactive means above about -30%;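 further: stimulus is agonist 54-4 at its EC80 concentration; on the % scale 0 is the no-effect control and ±100 the full control effect; compound concentration not given in the record; the text of the record puts the active cut at -80%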
Target sequence (Q9GZU1 whole entry, looked up): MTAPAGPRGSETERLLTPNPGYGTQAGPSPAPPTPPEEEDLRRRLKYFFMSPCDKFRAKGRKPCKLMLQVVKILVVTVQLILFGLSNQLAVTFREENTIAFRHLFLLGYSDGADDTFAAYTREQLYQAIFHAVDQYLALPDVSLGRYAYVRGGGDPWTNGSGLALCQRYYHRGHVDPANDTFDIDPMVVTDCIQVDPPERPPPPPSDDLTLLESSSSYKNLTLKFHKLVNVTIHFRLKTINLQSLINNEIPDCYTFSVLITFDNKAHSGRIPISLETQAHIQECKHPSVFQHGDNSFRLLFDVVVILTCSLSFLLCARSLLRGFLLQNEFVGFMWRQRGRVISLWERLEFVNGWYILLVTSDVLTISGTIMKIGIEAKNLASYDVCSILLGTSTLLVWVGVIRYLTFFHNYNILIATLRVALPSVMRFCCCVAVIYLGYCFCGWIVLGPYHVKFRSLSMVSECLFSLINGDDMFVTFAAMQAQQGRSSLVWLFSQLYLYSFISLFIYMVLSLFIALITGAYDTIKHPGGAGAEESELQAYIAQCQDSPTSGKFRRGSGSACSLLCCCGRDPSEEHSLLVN
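Calcium fluorescence in TRPML1-DL cells induced overnight with Tet: a 110 s read after compound pin addition, then a 110 s antagonist read after challenge with 54-4 at 4 uM final (EC80).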
CtBP-E1A inh – qHTS Assay for Inhibitors of the CtBP/E1A Interaction; CtBP / adenovirus E1A interaction (AlphaScreen); AlphaScreen GST-E1A/His-CtBP binding, 1536-well; stronger effect = lower value; control for the full effect not named in the record; activity change, % (test concentration not listed); hit rate 0.49% among 340,000; AID 651724, 2012; in the data active means activity change below about -65%; inconclusive means about -30% to -65%; inactive means above about -30%; further: on the % scale 0 is the no-effect control and ±100 the full control effect; compound concentration not given in the record
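In 5 uL wells, 23 nL compound meets equimolar GST-E1A and His-CtBP (5X stock 125 nM each) for 2 h, 37 °C. Beads (5X, 50 ug/mL) then 1 h, 37 °C, dark.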
Six1-Eya2 blk – qHTS Assay for Inhibitors of the Six1/Eya2 Interaction; hit rate 0.56% among 360,000; AlphaScreen GST-Six1/His-Eya2 binding, biochemical; stronger effect = lower value; control for the full effect not named in the record; activity change, % (test concentration not listed); AID 651725, 2012; in the data active = activity change below about -65%; inconclusive = about -30% to -65%; inactive = above about -30%; further: on the % scale 0 is the no-effect control and ±100 the full control effect; compound concentration not given in the record
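Homogeneous AlphaScreen proximity assay pairing GST-Six1 with His-tagged Eya2 (added as 5X mix: 250 nM and 500 nM) in 50 mM Tris pH 8.0, 300 mM NaCl, 1 mM TCEP. Glutathione donor and nickel acceptor beads; 1 h, 37 °C, dark.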
PINK1 modulator – A Quantitative High throughput Screen to Identify Chemical Modulators of PINK1 Expression; PINK1 immunofluorescence, high-content cytometry, 24 h; Potency, µM (series often up to 76.6 µM), for the others: top-dose activation (PINK1 increase), usual class: activators; hit rate 0.2% among 410,000; AID 624263, 2012; active = well fitted activation curve with a large enough effect; inconclusive = small, poorly fitted or top-dose-only effect; inactive = flat fitted curve, though single readings scatter; cell line not stated here;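 further: potency means the concentration at half of the fitted maximal effect; % of control where 0% means no effect; nearly all actives have a fitted effect of over 65% in size; a mitochondrial uncoupler was the plate control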
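Readout is PINK1 immunofluorescence, quantified alongside mitochondrial, cell and nuclear markers by laser-scanning microplate cytometry. Cells from a stable line were exposed to compound titrations (5 concentrations) for 24 hours, with CCCP controls.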
TRPML1 ag – qHTS for Agonists of the Human Mucolipin Transient Receptor Potential 1 (TRPML1); Mucolipin-1 (Homo sapiens), Q9GZU1; TRPML1-expressing cells, Ca2+ dye fluorescence, FDSS; host cell line not named in the record; reference of the full effect not given here; activation, % (concentration not given with the values); hit rate 0.12% among 410,000; AID 624414, 2012; in the data active = activation above about 50%; inconclusive = about 30% to 50%; inactive = below about 30%; further: 0% is about no effect; the text of the record puts the active cut at 80%
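In this qHTS format, compounds were pin-transferred onto Ca8-dye-loaded TRPML1-DL cells induced with Tet overnight, and intracellular Ca2+ fluorescence was recorded kinetically for 110 s after a 10 s baseline. A subsequent 4uM final 54-4 (EC80) addition followed by a second 110 s read served as the antagonist phase.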
D2 agonist – Beta-Arrestin HTS for Positive Allosteric Modulators of the Human D2 Dopamine Receptor: Agonists. D(2) dopamine receptor (Homo sapiens), P14416. DiscoveRx PathHunter D2 beta-arrestin, luminescence, 90 min; 100% = 57 uM dopamine signal. activation, % (test concentration not listed). hit rate 0.084% among 360,000. AID 624465, 2012; in the data active = activation above about 40%; inconclusive = about 15% to 40%; inactive = below about 15%; further: compound concentration not given in the record; the text of the record calls up to 30% inactive
Target sequence (P14416 whole entry, looked up): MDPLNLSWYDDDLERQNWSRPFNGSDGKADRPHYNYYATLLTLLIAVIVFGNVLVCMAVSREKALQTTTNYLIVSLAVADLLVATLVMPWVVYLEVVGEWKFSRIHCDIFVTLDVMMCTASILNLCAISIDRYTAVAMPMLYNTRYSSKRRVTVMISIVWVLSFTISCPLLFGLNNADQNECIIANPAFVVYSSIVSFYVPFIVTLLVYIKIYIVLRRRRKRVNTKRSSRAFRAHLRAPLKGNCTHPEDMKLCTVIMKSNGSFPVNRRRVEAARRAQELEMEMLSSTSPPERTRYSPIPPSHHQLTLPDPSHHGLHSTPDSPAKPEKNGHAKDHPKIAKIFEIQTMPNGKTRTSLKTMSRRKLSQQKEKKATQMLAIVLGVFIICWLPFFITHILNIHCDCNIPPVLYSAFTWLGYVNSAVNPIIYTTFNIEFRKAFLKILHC
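DiscoveRx PathHunter D2 beta-arrestin cells (2,100/well) attached overnight, then compound-stimulated 90 min at 37 C in HBSS/10 mM HEPES/0.1% Tween-20 buffer; beta-galactosidase complementation read by luminescence after 1 h at ambient temperature. Dopamine 57 uM final (EC100) as control.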
An asterisk follows results filed as active; ? = inconclusive; nt = not tested or not shown; & = joins results of further samples; [ ] = dose if it differs, or a comment.

SMILES	TRPML1 inh	CtBP-E1A inh	Six1-Eya2 blk	PINK1 modulator	TRPML1 ag	D2 agonist
CC(Sc1nnnn1C1CC1)C(=O)Nc1cccc(S(=O)(=O)N2CCOCC2)c1 (configuration not stated)	14	0	-1	0.6%	0.7	-1.0
COc1ccc2c(c1)c(CC(=O)Nc1cc(C)ccc1C)c(C)n2C(=O)c1ccc(Cl)cc1	-13	-11	-5	-0.9%	-0.4	0.1
COc1ccc(C2SCC(=O)N2Cc2ccccc2)cc1 (configuration not stated)	nt	nt	2	0.4%	nt	-0.1
Cc1ccccc1-c1cc(C(=O)Nc2sc(C(=O)OC(C)C)c(C)c2C#N)c2ccccc2n1	15	-5	-3	13µM*	-0.3	-2.6
CC(=O)c1ccc2c(c1)c(C#N)c1ccccc1[n+]2[O-]	-1	-21	11	-1.6%	15	2.0
CCCCN(CCCC)CC(O)Cn1c2ccccc2c(=O)c2ccccc21 (configuration not stated)	7	7	18	1.8%	1.3	3.1
COc1ccc(-n2nnnc2C(c2ccccc2OC(F)(F)F)N2CCN(C/C=C/c3ccccc3)CC2)cc1 (configuration not stated)	10	-25	-24	4.6%	1.2	-2.0
CCCNC(=O)C1(C)CCCN(Cc2ccc(Oc3ccccc3)cc2)C1 (configuration not stated)	nt	-24	15	-0.1%	-1.3	-8.8
COc1ccccc1C(=O)NCC(=O)OCC(=O)Nc1ccc2[nH]c(=O)[nH]c2c1	9	-4	?	0.3%	-0.1	-4.1
CC1CN(S(=O)(=O)c2ccc(C(=O)Nc3nc(-c4cc5ccccc5o4)cs3)cc2)CC(C)O1 (configuration not stated)	-3	11	1	-0.6%	-0.7	6.6
CC(C)n1cc(NC(=O)C2CC(c3cccc(Br)c3)=NO2)cn1 (configuration not stated)	14	-6	-2	-1.2%	5.6	-0.5
CCC(NC(=O)CCc1c(C)c2cc3c(C)c(C)oc3cc2oc1=O)C(=O)N[C@@H](Cc1ccccc1)C(=O)O (some centres not stated)	nt	?	?	2.7%	nt	-3.7
COc1ccc(C2=CC3=C(Br)C(=O)C(C)(OC(=O)C4CCCC4)C(=O)C3=CO2)cc1 (configuration not stated)	5	-1	-26	5.8%	0.5	5.4
CCOC1CCCc2oc(-c3ccsc3)c(-c3cnc(OC)nc3)c21 (configuration not stated)	nt	-15	-3	3.6%	-0.5	nt
CCC(CC)NC(=O)Cc1ccccc1[N+](=O)[O-]	-2	-10	-2	1.5%	1.4	-3.8
CC(C)(C)OC(=O)N(CCc1ccccc1)Cc1cccc(OCc2cccc(NC(=O)C3CC3)c2)c1	22	-1	4	2.3%	-0.5	1.1
CC(=O)Nc1ccc(NC(=O)CSc2ncc(C(=O)Nc3ccc(F)cc3)c(=O)n2C)cc1	18	-23	0	-0.4%	0.5	0.9
COc1ccc(CCN(C)C(=O)CSc2ncnc3sccc23)cc1OC	9	nt	4	0.4%	-0.2	-3.1
CC(=O)Nc1cc(-c2cccc(N)c2)cn2c(-c3ccccc3)cnc12	nt	-13	-11	2.8%	-0.8	3.8
COCCNC(=O)C(=O)N/N=C(\C)CC(=O)Nc1cccnc1	10	-3	1	-1.0%	0.0	-4.2
COc1ccccc1C(=O)Nc1ccccc1C(=O)N1C(C)CCCC1C (configuration not stated)	2	7	-1	1.4%	-0.7	-3.4
COC(=O)C1=C(C)N=c2s/c(=C/c3cccs3)c(=O)n2C1c1cccs1 (configuration not stated)	6	2	-3	12%	0.9	3.1
Cc1ccc(-c2nn(-c3ccccc3)cc2C(=O)N2CCN(C3CCS(=O)(=O)C3)CC2)cc1 (configuration not stated)	-10	1	3	0.5%	-0.3	-3.4
O=C(Nc1ccc(Cl)cc1)c1ccc(-c2ccccn2)s1	12	1	4	0.4%	0.3	0.1
COC(=O)Cn1c2ccc(OC)cc2c2nc(C)sc21	9	4	15	1.0%	0.1	-3.7

(more compounds)
SMILES	TRPML1 inh	CtBP-E1A inh	Six1-Eya2 blk	PINK1 modulator	TRPML1 ag	D2 agonist
CCN1C(=O)[C@H]2[C@@H](c3ccc(C)cc3)N[C@]3(CCCN(CCC(C)C)C3=O)[C@H]2C1=O	-2	5	-2	1.4%	-0.1	-9.4
Cc1cccc(Nc2nc3ccccc3n3nnnc23)c1	-10	nt	-2	4.6%	2.5	-4.0
COc1ccc(-n2c(Cc3cccn3C)nnc2SCC(=O)NCc2ccccc2Cl)cc1	0	-3	-17	0.9%	0.8	5.3
CN(C(=O)CSc1nncc2ccccc12)c1ccccc1	29	2	-1	-0.2%	-0.3	-6.1
CCOc1ccc(/C=C2\SC(=S)N(C(C(=O)O)c3ccccc3)C2=O)cc1OC (configuration not stated)	31	0	-13	-0.5%	5.4	-3.2
O=C(C1=C[C@H](C2CCCCC2)C[C@H](OCCCCO)O1)N1CCN(Cc2ccccc2)CC1	10	-5	-7	-0.8%	0.1	-1.5
COc1ccc(C(=O)Nc2nnc(SCc3cc(=O)n4cccc(C)c4n3)s2)cc1	19	nt	nt	-0.9%	0.2	nt
COc1ccccc1CNC(=O)C(C)n1nc(C)c2c(C)n(-c3ccccc3)nc2c1=O (configuration not stated)	10	18	-1	1.4%	0.3	0.9
CN(C(=O)CSc1nc2ccccc2o1)C1CCS(=O)(=O)C1 (configuration not stated)	21	2	5	-1.0%	0.0	-1.7
O=C(O)CCCNC(=O)/C(=C\c1ccccc1F)NC(=O)c1ccccc1	-14	-18	7	0.0%	0.3	-5.4
CCCCc1ccc(NC(=O)COc2ccc(C(=O)Nc3ccccc3OCC)cc2)cc1	-10	15	2	13%	-0.2	-1.4
O=C(COc1ccc2ccccc2c1)N1CCN(C(=O)c2ccco2)CC1	-11	-12	2	-1.3%	3.1	-0.1
Cc1ccccc1NC(=O)Cc1nnc(NC(=O)Nc2ccccc2F)s1	-20	-6	-1	9.0%	0.1	3.4
O=C(Nc1nnc(-c2ccc(Cl)cc2)o1)C1=COCCO1	12	-15	6	0.5%	-0.5	-3.7
CCCN(CC1CC1)C(=O)COC(=O)c1oc2c(F)cccc2c1C	12	nt	19	3.9%	0.3	?
Cc1ccc(S(=O)(=O)N2CCN(C(=O)c3cc4c(C)nn(-c5ccccc5C)c4s3)CC2)cc1	8	-10	-11	-1.1%	0.5	-3.8
CC(CC(=O)c1cccs1)CC(=O)c1cccs1	-1	12	7	14%[38.3 µM]	-0.4	-2.7
O=C(CSCc1ccccc1)N1CCN(c2cccc(C(F)(F)F)c2)CC1	65	4	-1	-0.4%	4.1	-5.0
CC(=O)c1cccc(NC(=O)c2cnn(-c3ccccc3)c2C)c1	1	10	-5	2.0%	1.2	0.7
O=C(COC(=O)/C=C/c1ccc(Cl)cc1)NCc1cccs1	21	-3	2	-1.1%	-0.4	-3.6
COc1cc(NC(=O)CN(c2cc(C)cc(C)c2)S(=O)(=O)c2c(C)[nH]c(=O)[nH]c2=O)cc(OC)c1	14&-13	-8	-3	0.1%&1.4%	-0.3&0.5	-2.3
C=C1CCN([C@H](C(=O)Nc2ccc(OC)cc2)C(C)C)S(=O)(=O)c2ccccc21	-27	-9	-9	0.5%	-1.2	-5.1
O=C(c1cc2nc(-c3ccccc3)cc(-c3ccccc3)n2n1)N1CCCC1	20	9	8	4.4%	3.3	4.3
COc1cc(C2CC(=O)NC3=C2C(=O)CC(C)(C)C3)cc(OC)c1O (configuration not stated)	-11	2	16	4.0%	-0.4	0.9
O=C(NC1CCCCC1)c1cc2ccccc2cc1O	-16	9	10	?	0.5	3.6

Entries of single compounds from above. Screens in order: TRPML1 inh | CtBP-E1A inh | Six1-Eya2 blk | PINK1 modulator | TRPML1 ag | D2 agonist
Profile of CC(=O)Nc1ccc(NC(=O)CSc2ncc(C(=O)Nc3ccc(F)cc3)c(=O)n2C)cc1 : 18 | -23 | 0 | -0.4% | 0.5 | 0.9
Profile of O=C(Nc1nnc(-c2ccc(Cl)cc2)o1)C1=COCCO1 : 12 | -15 | 6 | 0.5% | -0.5 | -3.7
Profile of COc1ccc(C2=CC3=C(Br)C(=O)C(C)(OC(=O)C4CCCC4)C(=O)C3=CO2)cc1 (configuration not stated) : 5 | -1 | -26 | 5.8% | 0.5 | 5.4
Profile of COc1ccccc1CNC(=O)C(C)n1nc(C)c2c(C)n(-c3ccccc3)nc2c1=O (configuration not stated) : 10 | 18 | -1 | 1.4% | 0.3 | 0.9
Profile of O=C(CSCc1ccccc1)N1CCN(c2cccc(C(F)(F)F)c2)CC1 : 65 | 4 | -1 | -0.4% | 4.1 | -5.0

Next compounds
SMILES	TRPML1 inh	CtBP-E1A inh	Six1-Eya2 blk	PINK1 modulator	TRPML1 ag	D2 agonist
CCCCc1nc2cc(C(=O)N3CCCCC3CCO)ccc2o1 (configuration not stated)	16	-4	9	1.6%	0.5	-2.3
CCN(CCCNC(=O)CN1C(=O)COc2ccccc21)c1cccc(C)c1	-18	-9	-9	4.2%[38.3 µM]	1.8	-1.5
O=[N+]([O-])c1ccc(Oc2cccc(Br)c2)c2ccncc12	18	-16	?	0.5%	2.1	5.2
Cc1ccccc1OCC(=O)OCC(=O)c1ccc(-c2ccccc2)cc1	2	nt	21	-0.3%	3.5	-13
CCn1ccc(C(=O)Nc2c(C)nn(Cc3c(F)c(F)c(F)c(F)c3F)c2C)n1	12	-18	-15	1.6%	-0.1	-0.3
Fc1ccccc1NC(=S)N1CCN(C/C=C/c2ccccc2)CC1	28	4	-2	-2.7%	-0.2	0.5
N#C/C(C(=O)N1CCCCC1)=C1/N=C(NC(=O)c2ccc(F)cc2)c2ccccc21	3	2	3	0.0%	-0.7	4.1
CC1CN(C(=O)c2ccc3c(c2)OCO3)CC(C)O1 (configuration not stated)	-3	0	5	11%	1.2	-3.3
Fc1cccc(Cn2cc(C(=S)N3CCOCC3)c3ccccc32)c1	11	-21	-20	-2.2%	2.8	-5.9
COc1ccc(N(CC(=O)N/N=C/c2ccccc2F)S(=O)(=O)c2ccccc2)cc1	-22	-1	0	4.2%	2.8	9.2
Cc1cnn(-c2nc(-c3cccs3)cc(C(F)(F)F)n2)c1	8	-4	-2	-1.6%[38.3 µM]	0.1	-2.6
COc1ccc(-n2c(SCC(=O)N3CCC(C(=O)O)CC3)nc3ccccc3c2=O)cc1OC	2	0	-11	4.2%	0.6	-4.3
COc1cccc(NC(=O)CN2CCc3ccccc3C2)c1	nt	nt	8	-0.9%	nt	2.1
O=C(CN(c1ccc(F)cc1)S(=O)(=O)c1ccccc1)Nc1ccccc1C(=O)O	6	nt	-3	1.9%	-0.4	-0.5
O=C(NC(=S)NC1CCS(=O)(=O)C1)c1ccccc1Br (configuration not stated)	3	3	0	2.4%	0.0	-4.1
